Source: PubChem BioAssay (several laboratories)
Vif TR-FRET: HIV-1 Vif–A3G interaction blockers – biochemical, TR-FRET, GST-Vif 1-94, biotin-A3G peptide, dose response retest, primary screen (AID 1117319); TR-FRET GST-Vif / biotin-A3G peptide binding; higher % means a stronger effect; test concentration not given here; strong numbers were not always called active; one-dose inhibition, %; IC50 in µM for titrated hits; 0.57% of 260,000 active;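 active = above the screen mean plus three standard deviations and confirmed in dose response; inconclusive = results disagree or hit not tested in dose response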;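 also: Vif residues 1-94 fused to GST binding biotinylated APOBEC3G peptide 110-148; 0% = full assay without inhibitor and 100% = GST in place of GST-Vif; retest series ran down from 100 µM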
B2AR ag: activates human beta-2 adrenergic receptor causing internalization. P07550. Am2.2-beta2AR cells, FAP receptor internalization, flow cytometry; reference of the scale not given here. response, % (test concentration not listed). 0.43% of 340,000 active. AID 504454;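 active = response above a set limit, near 3 SD of response in nonfluorescent compounds, cut at about 42% in these data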;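 also: stock transfer was 100 nL into about 11 µL; a reference agonist was the positive control; negative values mostly stem from fluorescent compounds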
Target sequence (P07550 whole entry, looked up): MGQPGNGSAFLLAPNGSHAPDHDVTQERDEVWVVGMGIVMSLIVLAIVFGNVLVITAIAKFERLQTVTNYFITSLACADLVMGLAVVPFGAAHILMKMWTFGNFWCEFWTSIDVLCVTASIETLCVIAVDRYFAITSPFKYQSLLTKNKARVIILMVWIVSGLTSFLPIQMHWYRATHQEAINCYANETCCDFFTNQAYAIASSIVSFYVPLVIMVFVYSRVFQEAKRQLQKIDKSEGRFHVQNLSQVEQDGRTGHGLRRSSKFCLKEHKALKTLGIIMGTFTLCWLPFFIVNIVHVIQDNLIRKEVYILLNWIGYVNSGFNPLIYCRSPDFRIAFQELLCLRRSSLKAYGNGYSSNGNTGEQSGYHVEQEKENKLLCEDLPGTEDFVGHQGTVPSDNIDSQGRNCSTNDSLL
LANA-H2A inh: blocks KSHV LANA binding to histone H2A/H2B; AID 2629; 0.6% of 320,000 active; Q9QR71; cell-free LANA-H2A/H2B peptide, fluorescence polarization; inhibition, % (test concentration not listed); in the data active = inhibition mostly above about 10%, no sharp cut-off; inactive = mostly below about 6.7%;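 also: stock transfer was 7.5 nL into about 10 µL; 0% = median of vehicle wells and 100% = median of positive control wells; one replicate is shown; the record names a cut of 25% in any replicate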
RanGTP-Imp inh: inhibitors of RanGTP-importin-beta interaction, primary screen, biochemical, FRET, CFP-Ran, YFP-importin-beta, homogeneous. cell-free CFP-Ran/YFP-importin-beta FRET ratio. 1.1% of 300,000 active. inhibition, % (test concentration not listed);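 active = most replicates above 15%; inconclusive = exactly half above 15%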;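 also: 0% = DMSO wells and 100% = Ran loaded with GDP instead of GTP; wells of about 40 µL received 100 nL stock; the first replicate is given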
Calb FLC: affects C. albicans growth with fluconazole | C. albicans CaCi-2 (fluconazole-resistant clinical isolate) + fluconazole, Alamar Blue growth, 48 h | growth inhibition, % (concentration not given with the values) | 0.57% of 300,000 active | AID 1979;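 active = most replicates above 75%; inconclusive = exactly half above 75%; inactive = most below 75%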;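 also: all wells also contain fluconazole at 8 µg/ml as a sub-toxic cotreatment; 0% = median of DMSO wells and 100% = median of geldanamycin control wells; wells of about 8 µL received 7.5 nL stock; the first replicate is given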
HNF4A DNA FP: change in binding of human HNF4 alpha to DNA. HNF4a-FITC DNA binding, fluorescence polarization, 1 h. activity change, % at 10 µM. 0.3% of 360,000 active. AID 1224865; in the data active = activity change above about 30%, passing the limit was not always enough;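 also: controls were the assay level and a saturating level of protein; the project sought stronger binding though the title names inhibitors; some compounds called inactive have numbers as strong as hits; positive values seem to mean higher polarization but the record does not say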
Target sequence (P41235 whole entry, looked up): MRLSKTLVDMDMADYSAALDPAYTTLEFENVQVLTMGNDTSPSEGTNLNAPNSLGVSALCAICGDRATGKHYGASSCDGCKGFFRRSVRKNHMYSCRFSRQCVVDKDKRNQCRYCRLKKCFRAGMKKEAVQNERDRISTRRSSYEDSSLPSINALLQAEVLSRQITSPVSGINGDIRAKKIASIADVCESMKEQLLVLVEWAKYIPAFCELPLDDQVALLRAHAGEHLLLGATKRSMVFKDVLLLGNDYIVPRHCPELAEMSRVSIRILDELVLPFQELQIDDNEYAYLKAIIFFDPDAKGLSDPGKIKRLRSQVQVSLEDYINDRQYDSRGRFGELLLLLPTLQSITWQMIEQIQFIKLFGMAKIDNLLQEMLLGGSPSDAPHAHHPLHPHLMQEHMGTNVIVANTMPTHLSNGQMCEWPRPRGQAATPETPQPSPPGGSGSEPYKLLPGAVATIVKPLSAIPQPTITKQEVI
ALR inh: human ALR oxidase inhibition via reduced H2O2; inhibition, % (no concentration beside the values); AID 485317; purified ALR, DTT oxidation, H2O2 HRP-luminol luminescence; P55789; 3.8% of 290,000 active;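 active = mean and each replicate at 75% or more; inconclusive = only one of the two met; inactive = neither met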;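 also: stock transfer was 7.5 nL into about 7.5 µL; 0% = neutral wells and 100% = wells with inactivated enzyme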
Target sequence (P55789 whole entry, looked up): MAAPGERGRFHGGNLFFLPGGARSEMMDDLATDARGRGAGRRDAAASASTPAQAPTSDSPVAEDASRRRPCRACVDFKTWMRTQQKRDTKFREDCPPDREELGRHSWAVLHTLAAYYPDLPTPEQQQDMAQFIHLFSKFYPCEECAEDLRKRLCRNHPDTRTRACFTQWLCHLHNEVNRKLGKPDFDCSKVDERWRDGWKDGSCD
Numbers without * were called inactive; ? = inconclusive; nt = no result given; & = joins results of further samples.

SMILES	Vif TR-FRET	B2AR ag	LANA-H2A inh	RanGTP-Imp inh	Calb FLC	HNF4A DNA FP	ALR inh
CCOc1cc2[nH]c(=S)n(Cc3ccc(C(=O)NCCCN4CCOCC4)cc3)c(=O)c2cc1OCC	15%	3	-1.8	-2.3	-1	-1.2	3
O=C(Nc1cccc(OCC(=O)N2CCOCC2)c1)C1CCCCC1	-6%	2	0.8	3.6	-9	-1.4	-2
CCOC(=O)N1CCN(C(=O)CS(=O)Cc2nc(-c3ccc(OC)c(OC)c3)oc2C)CC1 (centres undefined)	0%	-6	7.9	-1.1	6	2.8	99*
Cc1ccc(-c2nnc(-c3cccc4ccccc34)o2)cc1	-2%	-4	nt	nt	nt	-0.3	nt
Cc1ccc(CNC(=O)COC(=O)c2c(C)noc2C)cc1	5%	-1	4.8	1.6	5	10	nt
Cc1cc(C)n(CC(=O)c2ccccc2)c(=O)c1C#N	2%	1	0.3	-1.0	-6	-5.2	1
CCOc1ccc(NC(=O)N2CCC(NC(=O)c3ccco3)CC2)cc1	-2%	0	2.8	0.5	5	-0.1	-8
Cc1ccn2c(NC3CCCC3)c(-c3cccs3)nc2c1	nt	-10	-3.8	-58	-2	-1.9	64
O=C(CSc1nc2cc(Cl)ccc2o1)NCCc1ccccc1	5%	4	-17	-1.1	-49	-0.6	-6
CCOC(=O)/C(=C/Nc1ccccc1)[N+](=O)[O-]	-1%	-1	-4.5	3.9	-3	-4.7	54
COc1cc(OC)cc(-c2nnc(SCc3cccc(C(=O)O)c3)o2)c1	14%	16	-4.9	-0.6	8	6.1	24
COc1ccc(/C=N/NC(=O)c2ccco2)cc1COc1ccc(F)cc1	-2%	10	1.2	2.6	16	-1.0	-11
COc1ccccc1N(CC(=O)NC(C)(C)C)C(=O)CCC(=O)Nc1ccccn1	nt	-9	1.1	-2.2	-1	-1.4	-3
O=C(O)Cc1ccc2sc(-c3ccccc3)nc2c1	nt	1	-2.7	?	4	0.6	-3
COc1ccc(C(=O)Nc2ccc(S(=O)(=O)N3CCN(C)CC3)cc2)cc1[N+](=O)[O-]	nt	-2	-1.0	-5.2	11	1.6	-4
O=C(CN1C(=O)CSC1=O)N1CCc2ccccc2C1	9%	-1	-2.0	-1.0	-10	4.4	-14
O=C(CSCc1ccccc1)N1CCN(S(=O)(=O)c2ccc(F)cc2)CC1	nt	-3	-2.5	-1.1	4	2.4	0
NC(=O)COC(=O)c1cc(-c2ccco2)nc2ccccc12	nt	-8	4.5	-3.8	-8	-7.1	1
CCNc1nc(NC(C)(C)C)nc(SC(C(C)=O)C(C)=O)n1	1%	-6	-6.1	3.1	10	1.7	4
O=C(N/C(=C/c1cccnc1)C(=O)N1CCOCC1)c1ccccc1	nt	2	0.2	-1.1	-7	2.5	0
CCN(CC)S(=O)(=O)c1ccc2nc(CCl)[nH]c2c1	18%	7	0.7	0.7	27	-1.7	3
CN1CCN(C(=O)c2cccc(S(=O)(=O)N3CCCCC3)c2)CC1	11%	3	1.2	5.8	-7	-1.6	-1
CCOC(=O)C1=C(C)NC(C)=C(C(=O)OCC)C1C1=COCCO1	-2%	-3	1.9	4.5	18	-0.9	1
CCS(=O)(=O)N1CCC(C(=O)NCCN2CCOCC2)CC1	2%	-1	nt	2.3	-13	-0.7	nt
COc1cccc(-c2nc(NCC3CCCO3)c3ccccc3n2)c1O (centres undefined)	-3%	12	3.8	-1.9	-6	1.8	18
SMILES	Vif TR-FRET	B2AR ag	LANA-H2A inh	RanGTP-Imp inh	Calb FLC	HNF4A DNA FP	ALR inh
COc1ccccc1NC(=O)CSc1nnc2ccc(-c3cccnc3)nn12	14%	-31	7.0	1.4	-4	-4.4	-11
O=C(NNC(=O)c1ccccc1Cl)c1ccncc1	0%	-3	nt	-2.8	3	1.8	nt
CCN1CCN(c2ccc(NC(=O)CCc3c(C)nc4c(-c5ccccc5)c(C)nn4c3C)cc2)CC1	3%	14	-2.3	-0.4	6	4.1	-6
CCOc1ccc(N2C(=O)CN=C2Nc2ccccc2Cl)cc1	10%	-1	-3.0	5.0	-3	-2.4	-3
Cc1ccc(NC(=O)CCCC(=O)O)c(-c2nc3ccccc3[nH]c2=O)c1	nt	9	-4.4	0.1	5	-4.4	24
CCCC[C@@H]1CNCCN1CCCc1cc(OC)c(OC)c(OC)c1	nt	-2	3.8	4.0	-4	1.1	10
CCn1nnc(NC(=O)c2cccnc2)n1	6%	-1	3.3	-1.8	-5	-0.1	-12
NC(=O)COC(=O)c1cccnc1Nc1ccccc1F	-12%	-3	-1.2	11	-7	1.8	0
Cc1cccc(C)c1NC(=O)CNC(=O)CNC(=O)c1ccc2c(c1)OCO2	0%	-2	-2.5	9.6	7	0.3	-5
Cc1sc2ncn(CC(=O)N3CCN(c4ccccn4)CC3)c(=O)c2c1S(=O)(=O)N1CCC(C)CC1	nt	-3	1.4	4.1	-6	-1.0	0
CCOc1ccc(CN2CCNC(=O)C2CC(=O)O)cc1 (centres undefined)	4%	-1	-0.8	-2.1	-5	-2.9	1
COc1ccc(N(C)C(=O)C2CCN(S(=O)(=O)c3cccc4nonc34)CC2)cc1	-6%	-7	5.7	2.2	-5	2.4	-23
NC(=O)c1ccccc1OCC(=O)Nc1cccnc1Cl	nt	-3	-0.4	nt	nt	3.3	-2
N#Cc1c(NC(=O)c2ccc(Cn3cc(Br)cn3)o2)sc2c1CCCCC2	6%	-6	-2.7	-1.6	-1	1.2	-7
O=C(OCc1ccc2c(c1)OCO2)c1cccc(S(=O)(=O)N2CCCCC2)c1	-5%	-4	-2.8	1.6	8	2.5	-3
Cc1cc(C)cc(NC(=S)N(Cc2ccc(Cl)cc2)Cc2ccc(C(=O)O)cc2)c1	-12%	-3	2.0	-0.9	21	1.2	?
COC(=O)COc1ccc(S(=O)(=O)N2CCCCCC2)cc1C	nt	15	3.7	2.3	-5	-2.8	nt
O=C1c2ccc3c4c(ccc(c24)C(=O)N1c1cccc(O)c1)C(=O)N(c1cccc(O)c1)C3=O	-10%	11	-2.7	-1.8	-7	1.4	-21
CCCNC(=O)/C=C/c1ccc(C(C)C)cc1	-6%	9	-0.7	-3.4	-8	-0.8	3
COC(=O)c1c(-c2ccncc2)csc1NC(=O)c1ccoc1C	-19%	-6	-3.1	9.7	14	0.6	-4
CC(=O)Nc1ccc(NS(=O)(=O)c2cc(-c3cnc(C4CC4)o3)ccc2C)cc1	nt	13	8.5	2.3	20	4.4	-3
N=c1c(C(=O)NCc2ccc(F)cc2)cc2c(=O)n3ccccc3nc2n1CC1CCCO1 (centres undefined)	?	16	-2.3	199*	-1	6.1	0
O=C1OC(NC(=O)c2ccccc2)C(n2cc(CO)nn2)=C1Cl (centres undefined)	-7%	-1	-3.8	-0.2	1	-2.9	0
CCOC(=O)N1CCN(C(=O)c2cccc(NC3=NC4CS(=O)(=O)CC4S3)c2)CC1 (centres undefined)	0%	4	-0.3	-2.2	-1	-1.0	-2
CC1CCc2c(sc3c2C2=NS(=O)(=O)CCN2C=N3)C1 (centres undefined)	7%	-8	-2.3	12	-1	-0.9	-5

Three entries out of the list above, arranged by the number in RanGTP-Imp inh, smallest number first.
SMILES	RanGTP-Imp inh
O=C(CSCc1ccccc1)N1CCN(S(=O)(=O)c2ccc(F)cc2)CC1	-1.1
CCN(CC)S(=O)(=O)c1ccc2nc(CCl)[nH]c2c1	0.7
N=c1c(C(=O)NCc2ccc(F)cc2)cc2c(=O)n3ccccc3nc2n1CC1CCCO1 (centres undefined)	199*

(listing goes on)
SMILES	Vif TR-FRET	B2AR ag	LANA-H2A inh	RanGTP-Imp inh	Calb FLC	HNF4A DNA FP	ALR inh
COc1ccc(C(CNC(=O)c2ccccc2C)N2CCCC2)cc1 (centres undefined)	4%	0	0.9	-5.3	-21	0.0	-17
CCCCNC(=O)CC1Nc2ccccc2NC1=O (centres undefined)	3%	5	0.6	1.0	2	-0.6	8
CCSc1nc(-c2ccc(OC)cc2)n(-c2nc3ccccc3s2)n1	-2%&-8%	-12	-8.0	0.1	15	1.0	0
COc1ccc(CCNC(=O)COC(=O)CSc2ccc([N+](=O)[O-])cc2)cc1OC	-1%	-4	8.0	nt	nt	2.5	nt
Cc1c(Cl)c([N+](=O)[O-])nn1CC(=O)NCc1cccnc1	nt	1	-6.4	-1.1	-9	0.5	-19
Cc1cc(OC(C)C(=O)NCCCN2CCOCC2)ccc1Cl (centres undefined)	nt	-5	-6.1	1.0	-5	-1.1	-1
Cc1sc(NC(=O)CN2CCOCC2)c(C#N)c1C	nt	-7	0.9	0.8	-4	-3.0	23
CCOc1cc(CNn2c(C)nnc2SCC(=O)NC(C)(C)C)ccc1OCC(=O)NC(C)(C)C	4%	-5	-2.1	0.6	29	-1.6	0
COc1ccc(C(=S)N2CCOCC2)cc1OC(=O)c1cc([N+](=O)[O-])c(C)c([N+](=O)[O-])c1	26%	6	0.6	-0.4	2	-0.5	0
Fc1cccc(NC(=S)NCC(c2cccnc2)N2CCOCC2)c1 (centres undefined)	nt	-2	2.8	-1.8	0	-1.1	nt
Cc1cccc(NC(=O)NCC2CCN(c3ccc(S(=O)(=O)N4CCOCC4)cc3)CC2)c1	nt	2	1.6	4.7	-5	-0.2	nt
Cn1cccc1/C=N/NC(=O)c1ccco1	?	1	0.4	0.4	-4	-1.0	16
O=C(COc1cccnc1[N+](=O)[O-])Nc1ccc2c(c1)CCC2	9%	-12	-1.7	2.6	1	6.4	nt
CC(C)(C)CN1CCNC(=O)C1CC(=O)NCCc1ccccc1C(F)(F)F (centres undefined)	>100µM*	7	6.4	?	-3	5.6	11
Cc1ccsc1C(=O)NCCc1nnc2ccccn12	nt	-3	0.3	0.6	-1	1.4	-7
Cc1cc(C)c(O)c(C2(O)C(=O)c3ccccc3C2=O)c1	13%	-2	6.5	7.5	18	3.8	1
COC(=O)c1cc(-c2ccc(OC)cc2F)nc2nc(SC)[nH]c(=O)c12	nt	-16	-0.5	-1.9	1	1.1	-28
Cn1nccc1C(=O)N1CCN(c2ccc(F)cc2)CC1	1%	-2	0.0	-3.0	44	-0.1	nt
CC(=O)Nc1ccccc1C(=O)N1CC2(C)CC1CC(C)(C)C2 (centres undefined)	0%	-4	1.1	-1.1	10	-3.2	-6
CCOC(=O)c1cnc2nc(C(F)(F)F)[nH]n2c1=O	0%	0	-0.2	-0.6	1	2.4	-5
O=C(CS(=O)Cc1ccccc1Cl)Nc1ccccc1Cl (centres undefined)	23%	0	-5.0	1.4	6	-0.6	-8
CCOc1ccc(/C=C/C(=O)N(CC)CC(=O)Nc2ccc3c(c2)OCCO3)cc1OCC	nt	-2	-5.6	3.7	-11	3.3	1
COc1cccc(CN(C)C(=O)CCN=C2NS(=O)(=O)c3ccccc32)c1OC	-12%	2	1.9	nt	nt	-0.4	nt
OC[C@H]1OC(O)C[C@@H](O)[C@@H]1O (some centres undefined)	nt	-1	-6.3	2.1	10	0.3	-13
CC(C)OC(=O)NS(=O)(=O)c1cccc([N+](=O)[O-])c1	nt	1	2.6	-2.6	2	-0.8	-13
SMILES	Vif TR-FRET	B2AR ag	LANA-H2A inh	RanGTP-Imp inh	Calb FLC	HNF4A DNA FP	ALR inh
COc1ccc(C(=O)Nc2cc(OCc3ccccc3)c(Cl)cc2Cl)cc1	5%	-3	1.3	-2.3	4	-0.1	-4
CC(=O)NC(C(=O)c1ccccc1)N1CCCCC1 (centres undefined)	nt	5	-5.4	0.4	-13	7.0	-4
CCn1c(SCC(=O)Nc2nc(C)c(C)s2)nnc1-c1cccs1	7%	-13	-1.4	1.7	-7	0.8	6
CCC1=NC(c2ccccc2OC)N(O)C1(C)C (centres undefined)	28%	-6	1.3	1.0	-22	-4.3	nt
CC(=O)c1cc(C#N)c(N2CC(C)OC(C)C2)nc1C (centres undefined)	7%	-9	-10	25*	-14	-1.4	-3
Cc1ccc(NC(=O)C(C)NS(=O)(=O)c2ccc(F)cc2)cc1C (centres undefined)	5%	2	0.0	-2.1	9	0.1	-2

This is a random part of the collection, and some 6.3% of all compounds hit somewhere here.
